CSC inhib: cancer stem cell inhibition | inhibition, % at 7.5 µM | cancer stem cell-like cells viability, luminescence | 1.1% of 300,000 active;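 active = mean at 75% or more and at least half the replicates too; inconclusive = mean and replicates disagree; tested in HMLE shEcad cells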;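 note: 0% = median of negative and 100% = median of positive control wells; the first replicate is given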
MT1-MMP act inh: MT1-MMP (human) activation inhibition | P50281 | HT1080 RFP-PRO-GFP cells, GFP/RFP ratio fluorescence, overnight; percent of plate control window, DMSO zero | GFP/RFP ratio change, % at 20 µM | 0.061% of 360,000 active;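 active = GFP/RFP ratio change of at least 30% with cell ATP level not reduced by more than half and red fluorescence within 50% of control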; note: strong numbers were not always called active
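Assay system: HT1080 cells carrying an RFP-PRO-GFP reporter | Dosing: Single dose of 20 µM compound, 1% DMSO final | Incubation: Cells overnight before dosing, compound overnight, 37 °C, 5% CO2 | Evaluation: GFP/RFP fluorescence ratio | Control set: DMSO and RFP-L50D-GFP cell wells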
eIF4H inh: inhibitors of RNA binding by human eIF4H; eIF4H fluorescence polarization binding assay; inhibition, % at 35 µM; Q15056; 0.94% of 290,000 active;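 active = 50% or more with normal probe brightness, or confirmed in later tests; inconclusive = above 50% with abnormal brightness, or retests that disagree; inactive = below 50% or failed in later tests; about a fifth of its hits are not listed in these tables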;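 note: calls also rest on retests at 20 µM and on dose response follow-up; 0% = protein and probe with vehicle and 100% = probe without protein; strong numbers were not always called active; many hits fall short of the cut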
PABP polyA inh: PABP-poly(A) binding inhibition; P11940; PABP-poly(A) RNA binding, fluorescence polarization; inhibition, % at 35 µM; 1% of 290,000 active; AID 2014;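 active = 50% or more with normal probe brightness, or confirmed in later tests; inconclusive = above 50% with abnormal brightness, or retests that disagree; inactive = below 50% or failed in later tests; about a fifth of its hits are not listed in these tables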;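 note: calls also rest on retests at 20 µM and on dose response follow-up; controls were probe without protein and protein plus probe with vehicle; some compounds called inactive have numbers as strong as hits; many hits fall short of the cut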
Rce1 inh: inhibitors of yeast Ras-converting enzyme; Q03530; yeast membranes, quenched prenylated peptide cleavage fluorescence; calls only; 0.27% of 290,000 active; AID 2563;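 active = fall in fluorescence gain of 50% or more versus controls, with final raw signal at or below 3038400; inconclusive = same 50% fall but final raw signal above 3038400; inactive = fall in fluorescence gain under 50%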;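 note: plate controls were neutral control wells for no effect and wells lacking membranes for full effect; tested at 10 µM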
Target sequence (Q03530 whole entry, looked up): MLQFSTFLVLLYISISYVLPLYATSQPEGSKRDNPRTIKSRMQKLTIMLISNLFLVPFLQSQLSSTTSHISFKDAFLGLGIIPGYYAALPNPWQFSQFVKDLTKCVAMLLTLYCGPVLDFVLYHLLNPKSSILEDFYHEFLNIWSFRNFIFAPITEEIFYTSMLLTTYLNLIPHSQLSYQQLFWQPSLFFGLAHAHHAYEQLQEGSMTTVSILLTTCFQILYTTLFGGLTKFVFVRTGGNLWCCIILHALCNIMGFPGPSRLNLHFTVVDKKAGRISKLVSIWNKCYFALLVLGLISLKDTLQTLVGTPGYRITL
UUG fidelity: alters start codon recognition fidelity in yeast; activity score, % at 18.7 µM; 0.13% of 350,000 active; S. cerevisiae UUG-firefly luciferase reporter, luminescence/redox ratio; AID 602363;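 active = replicate mean at a twofold rise or more, about +100% in these data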;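 note: firefly luciferase made from a UUG start codon reports start codon fidelity; reporter light over untreated wells divided by growth signal over untreated wells; some hits fall short of that in this replicate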
HIV Env fusion: HIV envelope-mediated fusion inhibition; HeLa-JRFL Env/CEM21 cell fusion, luciferase; inhibition, % at 12.3 µM; 1.1% of 360,000 active;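 active = mean replicate inhibition score of at least 50 and every replicate individually at or above 50; inconclusive = only one of the two criteria met; inactive = mean below 50 and not all replicates reaching 50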;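 note: 0% = plate neutral controls and 100% = maraviroc near 300 nM; one replicate is shown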
MT1-MMP act inh RFP: also measured in MT1-MMP act inh; calls as there; RFP signal change, %; measured here: RFP expression control read;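 0 = vehicle wells; hits needed this value within 50% of zero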
* hit, by the source's call; i = inactive; ? = inconclusive; nt = no result given; + = active, no number; & = joins results of further samples. Outcome played no part in choosing rows, and some 2.9% of all compounds hit somewhere here.

Every second line gives: PABP polyA inh | Rce1 inh | MT1-MMP act inh | CSC inhib | MT1-MMP act inh RFP | eIF4H inh | UUG fidelity | HIV Env fusion
- COCCCN1C2=C(C(=O)CC(C)(C)C2)C(c2ccc(OC)c(OC)c2)C2=C1CC(C)(C)CC2=O
 : 1.8 | i | -10.9 | 4.6 | -2.9 | 4.3 | -11.2 | 8.6
- COC(=O)c1ccccc1NC(=O)COC(=O)CSc1nnc(N)s1
 : 12.4 | i | 0.2 | -6.1 | 3.7 | 3.3 | nt | 3.9
- CCC(C)(C)NC(=O)CN(C(=O)CNS(=O)(=O)c1ccccc1)c1ccc2c(c1)OCCO2
 : 12.0 | i | -3.0 | -10.8 | -0.1 | 2.0 | 10.0 | 2.7
- Cc1cc(N=Nc2ccc(Cl)cc2)cc(CN2CCOCC2)c1O
 : 3.8 | i | 5.8 | 59.9 | 3.7 | -6.3 | 8.0 | 23.6
- Cc1cc(C)nc(NC(=O)c2ccc(Br)s2)n1
 : -1.8 | i | 0.4 | nt | 1.3 | -4.6 | -12.7 | 1.8
- O=C(O)C1Sc2[nH]c(=O)sc2C2c3ccc(O)cc3OC(=O)C12 (centres undefined)
 : -5.5 | + | -29.5 | -3.9 | 11.7 | ? | 0.9 | -1.5
- COc1cc(NC(=O)c2cccc(S(=O)(=O)N3CCCCC3)c2)cc(OC)c1OC
 : nt | nt | 7.7 | -7.1 | -1.1 | nt | -2.4 | -9.0
- O=C(O)c1cc(S(=O)(=O)N2CCOCC2)ccc1N1CCCCC1
 : -3.0 | i | 11.1 | 8.5 | 6.7 | -0.4 | nt | 1.2
- CC(C)NC(=O)COC(=O)c1ccccc1Oc1ccccc1
 : 7.9 | i | -4.6 | nt | 1.3 | -7.2 | -12.4 | nt
- CCCN(CC1CC1)C(=O)COC(=O)c1oc2c(F)cccc2c1C
 : nt | nt | -4.9 | -21.6 | -1.5 | nt | -5.6 | 8.2
- CC1CCN(CCCNC(=O)c2ccc(CS(=O)(=O)Cc3ccc(Cl)cc3)o2)CC1
 : 11.9 | i | -4.0 | -7.9 | 3.5 | 0.9 | 0.7 | 6.6
- Fc1cc(F)cc(Nc2nc(Cl)nc(NC3CCCC3)n2)c1
 : nt | nt | 6.4 | -2.5 | -17.1 | nt | -13.0 | 4.7
- Brc1ccc(-c2nc3ncccn3c2Nc2ccc3c(c2)OCCO3)o1
 : -0.4 | i | 2.0 | 1.6 | 2.4 | 2.9 | nt | -15.0
- CCCCCC(C)NC(=O)c1cc(S(=O)(=O)N2CCCCC2)ccc1N1CCOCC1 (centres undefined)
 : nt | nt | -2.1 | nt | 0.0 | nt | -18.9 | 10.4
- CC(C)(C)C(=O)Nc1nc2cc3c(cc2s1)OCO3
 : 7.3 | i | -1.9 | 5.3 | -22.6 | -2.7 | nt | -85.2
- O=C(CN1C(=O)NC2(CCCC2)C1=O)OCCOc1ccccc1
 : -10.4 | i | 4.6 | -4.1 | 9.8 | -12.0 | -6.1 | -29.1
- COc1ccccc1N1CCN(S(=O)(=O)c2cc3c(cc2C)NC(=O)CO3)CC1
 : 9.0 | i | -3.2 | 7.3 | -1.4 | -7.2 | 5.9 | -3.4
- COc1cc(C2CC(=O)n3c(nc4ccccc43)S2)cc(OC)c1OC (centres undefined)
 : -10.5 | i | nt | nt | nt | 14.4 | nt | nt
- CN1C(C(=O)NCc2cccc(Br)c2)CC2Cn3c(nc4ccccc43)C21 (centres undefined)
 : 6.0 | i | 0.4 | 0.5 | 2.4 | 0.6 | -12.5 | -21.5
- O=C(NCc1nc2ccccc2[nH]1)C1=C[C@H](c2ccccc2)C[C@H](OCc2ccc(CO)cc2)O1
 : 5.1 | i | 5.0 | -3.4 | 3.6 | 1.9 | -21.1 | -1.8
- C/C(=N/NC(=O)c1nnn(-c2nonc2N)c1COc1ccccc1)c1ccc(O)cc1
 : 8.7 | i | -4.4 | 3.7 | 1.8 | 1.8 | -6.3 | -0.2
- CCCN1CCN(C(=O)Cn2cnc3ccc(S(=O)(=O)N4CCC(C)CC4)cc3c2=O)CC1
 : 8.3 | i | 1.9 | -11.4 | 0.2 | -7.4 | nt | -7.9
- CC(C)Oc1cccc(C(=O)C2CCCN(C(=O)c3ccccn3)C2)c1 (centres undefined)
 : -1.3 | i | -0.6 | -5.8 | 0.4 | 4.8 | nt | -8.1
- CN1C(=O)c2cccc3c(S(=O)(=O)N4CCCC4C(=O)O)ccc1c23 (centres undefined)
 : 18.4 | nt | 1.6 | -4.7 | 2.8 | -1.5 | -13.9 | -0.9
- CCc1cc(C(=O)Nc2ccccc2N2CCOCC2)sc1C
 : nt | nt | -0.2 | nt | 0.3 | nt | -8.1 | 6.6
- COCCCn1c(O)c(/C=C2\N=C(C#N)C(=Nc3ccc(C)cc3)O2)sc1=S
 : -3.8 | i | -67.9 | -2.6 | 17.4 | 7.7 | -30.2 | 5.3
- Cc1csc(NC(=O)c2cccnc2Cl)n1
 : nt | i | -4.4 | -17.9 | 0.5 | nt | -9.5 | -12.9
- CCC1(c2ccc(OC)cc2)NC(=O)N(CC(=O)c2ccc3c(c2)OCCO3)C1=O (centres undefined)
 : nt | nt | -1.2 | nt | 1.0 | nt | -8.9 | 18.9
- COc1ccccc1Nc1nc(N)nc(CN2CCCCCC2)n1
 : -13.0 | i | -3.3 | -22.8 | 5.4 | -2.6 | -16.0 | nt
- Cc1cc(O)c(C=Nc2cccc(Cl)c2)c(=O)o1
 : 18.4 | i | -3.2 | nt | 40.2 | 41.7 | -14.2 | 11.8

Sorted by molar mass (lowest first): some entries from above.
Every second line gives: PABP polyA inh | Rce1 inh | MT1-MMP act inh | CSC inhib | MT1-MMP act inh RFP | eIF4H inh | UUG fidelity | HIV Env fusion
- O=C(CN1C(=O)NC2(CCCC2)C1=O)OCCOc1ccccc1
 : -10.4 | i | 4.6 | -4.1 | 9.8 | -12.0 | -6.1 | -29.1
- O=C(O)c1cc(S(=O)(=O)N2CCOCC2)ccc1N1CCCCC1
 : -3.0 | i | 11.1 | 8.5 | 6.7 | -0.4 | nt | 1.2
- COc1cc(C2CC(=O)n3c(nc4ccccc43)S2)cc(OC)c1OC (centres undefined)
 : -10.5 | i | nt | nt | nt | 14.4 | nt | nt

Additional entries.
Every second line gives: PABP polyA inh | Rce1 inh | MT1-MMP act inh | CSC inhib | MT1-MMP act inh RFP | eIF4H inh | UUG fidelity | HIV Env fusion
- CCOC(=O)c1c(C)[nH]c(C(=O)NCCN2CCOCC2)c1C
 : 1.0 | i | -0.9 | -3.0 | 4.7 | 5.9 | -19.3 | -12.1
- CCN(CCn1cccn1)C(=O)CC1C(=O)NCCN1Cc1ccc(F)cc1 (centres undefined)
 : 3.3 | i | -1.1 | 1.3 | 2.7 | 3.4 | -14.0 | -2.5
- N#Cc1cc([N+](=O)[O-])ccc1NC(=O)COC(=O)CN1C(=O)C2CCCCC2C1=O (centres undefined)
 : nt | nt | -0.8 | 3.4 | 2.6 | nt | 3.9 | 12.9
- COc1cccc(CN(C)C[C@H]2OCc3cnnn3CCCC(=O)N([C@H](C)CO)C[C@@H]2C)c1
 : nt | nt | 5.3 | nt | 8.2 | nt | -6.1&-2.7 | 36.2
- COC(=O)[C@H](C)NC(=O)Nc1ccccc1F
 : -0.3 | i | 8.7 | -7.5 | 1.6 | -8.1 | -2.3 | -6.4
- O=C(NC1CCCC1)C1CCN(c2cnccn2)CC1
 : 0.8 | nt | 0.1 | -2.2 | 2.4 | -1.4 | nt | 3.2
- COc1ccc(S(=O)(=O)Nc2cc(SCC(=O)O)c(O)c3ccccc23)cc1
 : 22.6 | i | -19.1 | 36.9 | 4.6 | 12.8 | -21.1 | -15.3
- COc1cc(-c2nc(-c3ccc4c(c3)-c3ccccc3S4(=O)=O)c(-c3ccccc3)[nH]2)cc(OC)c1OC
 : -11.4 | i | -1.5 | 14.5 | -8.1 | -11.4 | nt | nt
- COC(=O)c1cnn(C(=O)c2cc(OC)ccc2Br)c1N
 : -3.5 | i | -3.8 | 2.2 | 1.5 | -12.0 | -10.3 | -12.4
- CNc1oc(-c2ccccc2Cl)nc1C#N
 : -0.6 | i | -1.1 | -10.2 | 0.9 | -5.3 | -8.5 | nt
- O=C(O)CSC12CC3CC(C1)CC(C(=O)O)(C3)C2
 : 2.4 | i | 10.6 | -9.4 | 5.7 | 6.7 | -13.8 | -9.4
- O=c1[nH]c(/C=C\c2cccnc2)c([N+](=O)[O-])c(=O)[nH]1
 : -1.1 | i | -0.3 | -13.5 | 5.0 | -7.1 | nt | -0.3
- CCOC(=O)c1ccc(N=C2SC(C(=O)NC)CC(=O)N2CCc2ccccc2)cc1 (centres undefined)
 : -9.2 | i | -0.5 | -9.8 | -2.9 | -1.2 | nt | 14.7
- O=C(Nc1ccc(S(=O)(=O)N2CCCC2)cc1)c1ccc([N+](=O)[O-])o1
 : nt | nt | 7.3 | 29.4 | -14.8 | nt | -2.0 | nt
- O=C(COc1coc(CN2CCCc3ccccc32)cc1=O)Nc1cccc([N+](=O)[O-])c1
 : nt | i | -2.0 | -2.5 | -11.3 | nt | -4.2 | -4.2
- O=C(/C=C/c1ccco1)NCC1COc2ccccc2O1 (centres undefined)
 : 29.1 | i | -5.3 | 0.6 | 2.7 | -3.1 | -13.5 | -5.5
- CC1CCCC(C)N1NC(=S)Nc1ccc(OC(F)F)cc1 (centres undefined)
 : -3.4 | i | 0.7 | -6.6 | 2.0 | 10.1 | nt | 20.5
- CCN(CC)c1ccc(/C=N/NC(=O)c2cnccn2)c(O)c1
 : -7.1 | i | -5.0 | 101.5* | -9.4 | 1.5 | nt | -140.3
- CCc1ccc2oc(=O)cc(CN3CCOCC3)c2c1
 : -2.4 | i | 2.5 | -4.9 | -0.2 | -1.9 | -0.8 | nt
- CN(C)C(=O)CCc1ccc2c3c([nH]c2c1)[C@]1(C)[C@@H](C(=O)N2CCCCC2)C[C@H](CC(=O)NCCc2ccccn2)C(=O)N1CC3
 : nt | nt | 1.1 | nt | 5.3 | nt | -7.1 | -7.4
- CCC1CCCCN1C(=O)NC(=O)c1ccccc1 (centres undefined)
 : 3.9 | + | -13.4 | -3.6 | -1.1 | 7.3 | -13.2 | -8.8
- COc1cccc(C2CC(c3ccccc3C)n3nc(N)nc3N2)c1 (centres undefined)
 : -11.1 | i | 1.5 | -12.2 | 2.1 | -9.6 | -22.8 | 32.7
- Cc1ccc(NS(=O)(=O)c2ccc3c(c2)NC(=O)CC(=O)N3)cc1C
 : -3.8 | i | 0.9 | -4.9 | 5.7 | -0.8 | nt | 4.6
- Cc1csc(Nc2ccccc2)[n+]1C
 : 8.6 | i | 2.2 | -18.8 | 5.0 | 39.3 | -7.0 | -9.9
- CCN(CC)S(=O)(=O)c1ccc(OCC(=O)NCc2ccco2)cc1
 : 9.7 | i | 0.4 | 3.3 | 5.3 | -5.0 | 1.0 | 29.0
- CSc1ncccc1C(=O)OCc1nc2ccsc2c(=O)[nH]1
 : nt | i | -0.2 | -9.1 | 6.7 | nt | -1.3 | 9.0

Single records, from the list above. Values in the order: PABP polyA inh	Rce1 inh	MT1-MMP act inh	CSC inhib	MT1-MMP act inh RFP	eIF4H inh	UUG fidelity	HIV Env fusion
Fc1cc(F)cc(Nc2nc(Cl)nc(NC3CCCC3)n2)c1 across the screens: nt	nt	6.4	-2.5	-17.1	nt	-13.0	4.7
Cc1ccc(NS(=O)(=O)c2ccc3c(c2)NC(=O)CC(=O)N3)cc1C across the screens: -3.8	i	0.9	-4.9	5.7	-0.8	nt	4.6
CCCN(CC1CC1)C(=O)COC(=O)c1oc2c(F)cccc2c1C across the screens: nt	nt	-4.9	-21.6	-1.5	nt	-5.6	8.2
O=C(NC1CCCC1)C1CCN(c2cnccn2)CC1 across the screens: 0.8	nt	0.1	-2.2	2.4	-1.4	nt	3.2
